HPGD block – blocks human HPGD enzyme activity; P15428; purified HPGD, NADH fluorescence kinetic, PGE2 substrate; Potency, µM, for the others: top-dose activity change, negative = inhibition, actives largely listed as inhibitors; 4.3% of 150,000 active; AID 894; active = well fitted inhibition curve with a large enough effect (not every such curve was filed as active); inconclusive = small, poorly fitted or top-dose-only effect, or another doubt; inactive = no such curve, though single readings can be large or run the other way;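 also: top concentration of the series not given in the record; plate controls included wells without enzyme; inactives centre near -10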
Target sequence (P15428 whole entry, looked up): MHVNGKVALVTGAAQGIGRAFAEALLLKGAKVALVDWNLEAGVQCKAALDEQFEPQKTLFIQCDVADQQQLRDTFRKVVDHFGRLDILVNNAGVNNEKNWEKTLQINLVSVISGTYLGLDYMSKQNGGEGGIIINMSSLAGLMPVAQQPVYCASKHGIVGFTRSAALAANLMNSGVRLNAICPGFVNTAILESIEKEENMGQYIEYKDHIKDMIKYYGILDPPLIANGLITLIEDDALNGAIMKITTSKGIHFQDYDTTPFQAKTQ
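20 nM HPGD preincubated 15 min at room temperature with compound in 50 mM Tris-HCl pH 8, 0.01% Tween 20. Started with 1 mM NAD+ and 30 uM prostaglandin E2; NADH fluorescence (360/450 nm) read 5 times over 30-s intervals, last minus first.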
Numbers without * were called inactive; u = inconclusive; & = joins results of further samples. % is scaled to controls: 0 for no effect and ±100 for the full control effect; potency is read from the fitted curve at half-maximal effect. This is a subset; rates above refer to the full screens.

HPGD block | mol
-12% | CCn1cc(/C=N\NC(=O)c2ccccc2Cl)cn1
-10% | CC(=O)c1c(N2CCN(C(=O)C3CCCO3)CC2)nc(=S)n(-c2ccccc2)c1C (configuration not stated)
-8% | O=C(CN1CCN(c2ccccn2)CC1)Nc1ccc(OCc2ccccc2)cc1
u | Cc1cccc(Nc2nc3c(S(=O)(=O)c4ccccc4)nnn3c3ccccc23)c1
-26% | CCc1ccc(/C=N/NC(=O)c2cc(-c3ccncc3)nc3ccccc23)s1
-2% | Cc1c(Cl)c([N+](=O)[O-])nn1CC(=O)NCc1ccco1
-13% | Cc1nc(CCNC(=O)c2ccccc2)cs1
u | COc1ccc(-c2ccnc(SCC(=O)N3CCOCC3)n2)cc1
-14% | Cc1cc(C)c(S(=O)(=O)c2ccccc2)c(OC(=O)c2ccc(Cl)cc2Cl)n1
-10% | Cc1ccc(S(=O)(=O)N2CCC(=O)N([C@H](COCc3ccccc3)Cc3ccccc3)CC2)cc1
-14% | COc1ccc(C(=O)NCC(=O)N/N=C/C(C)=C/c2ccccc2)cc1OC
-6% | Cc1ccc(Cn2ncc3c(N4CCOCC4)ncnc32)cc1
-12% | O=C1NC(NS(=O)(=O)c2ccc(Cl)cc2)(C(F)(F)F)C(=O)N1Cc1cccnc1 (configuration not stated)
-12% | CCn1c(SCC(=O)Nc2ccc(S(=O)(=O)Nc3ccccn3)cc2)nnc1-c1ccncc1
1% | Cc1onc(-c2ccccc2Cl)c1C(=O)Nc1c(C)n(C)n(-c2ccccc2)c1=O
1% | Cc1cc(N2CCCCC2)nc(N2CCOCC2)n1

Look-ups from above.
Cc1cc(N2CCCCC2)nc(N2CCOCC2)n1 in HPGD block is listed with 1%
O=C1NC(NS(=O)(=O)c2ccc(Cl)cc2)(C(F)(F)F)C(=O)N1Cc1cccnc1 (configuration not stated) in HPGD block is listed with -12%

Later entries:
HPGD block | mol
-13% | N=c1ccn2c(n1)OCC1C2O[C@@H](O)[C@H]1O (some centres not stated)
-23% | Nc1nncn1C(=O)c1cc(Br)ccc1Cl
-9% | CC(C)C(=O)Nc1cc2c(cc1C(=O)c1ccccc1)OCCO2
-14% | Cc1sc(/C=C2\C(=O)ON=C2c2ccccc2)cc1Br
1% | Cc1cc(C)n(CC(=O)O)n1
-6% | CCOc1cc(/C=N/NC(=O)C(=O)NCCCOC(C)C)cc(Br)c1O
-13% | Cc1ccsc1C(=O)NCCC(c1ccccc1)c1ccccc1
-15% | COCCNC(=O)C(C)N1c2cccc3cccc(c23)S1(=O)=O (configuration not stated)
-27% | Clc1ccccc1Oc1cnc2ccccc2n1
-14% | CCOC(=O)Cn1c(=O)oc2cc(S(=O)(=O)N3CCc4ccccc43)ccc21
3% | O=C(c1ccco1)N1CCN(CCOCCOc2cccc3ccccc23)CC1
u | C#CCn1c(=NC(=O)c2ccc(S(=O)(=O)N3CCc4ccccc4C3)cc2)sc2cc(S(N)(=O)=O)ccc21
3% | NNC(=O)CN1C(c2cccc(Cl)c2)=Nc2ccc(Br)cc2C1c1ccccc1 (configuration not stated)
-18% | CC(C)(C)c1ccc(S(=O)(=O)O/N=C2/CCCCC2c2ccc([N+](=O)[O-])cc2[N+](=O)[O-])cc1 (configuration not stated)
-10% | O=C(CSc1nnc(Cc2ccc3c(c2)OCO3)n1C1CCCCC1)NC1CCCC1
-14% | COc1cccc(S(=O)(=O)Nc2cccc(C(=O)N3CCCCCC3)c2)c1
-8% | O=C1CC(=Nc2ccccc2)NN1c1ccccc1
-19% | COc1ccc(C(=O)COC(=O)CCCn2c(=O)oc3ccccc32)cc1
-5% | Cc1cc(Nc2cccc(Cl)c2)n2ncnc2n1
-7% | Clc1ccc(CO/N=C2\CCCc3nonc32)cc1
-22% | O=C(C[n+]1ccc(C(=O)N/N=C/c2ccc(OCc3ccccc3)cc2)cc1)c1ccccc1
u | O=C(Cn1c(-c2ccco2)nc2ccccc21)N1CCCCC1
-8% | COc1ccccc1NC(=O)c1ccc(NS(=O)(=O)c2c(C)noc2C)cc1
-16% | O=C(CSCc1ccc(F)cc1)Nc1ccccc1
-15% | Cc1ccc2c(CC(=O)Nc3ccc(N4CCN(C)CC4)cc3C)coc2c1
-4% | O=C(Nc1nc(-c2ccncc2)cs1)C1c2ccccc2Oc2ccccc21
-22% | CCOC(=O)Cn1nc(C)c2c1CCCC2=O
6% | CCN(CCO)Cc1cn[nH]c1-c1ccc(C)c(C)c1
u | Cc1c(C(=O)N2CCCC2)sc(NC(=O)c2cccc(Cl)c2)c1C#N
16µM* | CCCCNC(=O)CCCn1c(=S)[nH]c2cc3c(cc2c1=O)OCO3
-20% | O=C(Nc1c(F)cc(F)cc1Br)c1cc2nc(C(F)F)cc(C(F)F)n2n1
3% | CSCC[C@H](NC(=O)NCCC1=CCCCC1)C(=O)O

Ordered by SMILES length (highest first): some entries from above.
HPGD block | mol
-10% | Cc1ccc(S(=O)(=O)N2CCC(=O)N([C@H](COCc3ccccc3)Cc3ccccc3)CC2)cc1
u | Cc1c(C(=O)N2CCCC2)sc(NC(=O)c2cccc(Cl)c2)c1C#N
-27% | Clc1ccccc1Oc1cnc2ccccc2n1

Carrying on:
HPGD block | mol
-18% | CCCCNC(=O)c1cc(-c2ccc(OC)c(OC)c2)on1
-9% | Cc1ccc(N2CC(C(=O)NC3=NCCS3)CC2=O)cc1 (configuration not stated)
-2% | CCOC(=O)N1CCC(O)(c2cc(C)c(C)cc2C)CC1
-10% | CCc1nnc(NC(=O)CN2CCC(O)(c3ccccc3OC)CC2)s1
4% | CCOC(=O)c1ccc(CNC(=O)CSc2nc(NC(=O)c3ccccc3)c3c(C)c(C)oc3n2)cc1
-2% | COc1ccc(-n2c(Cc3cccs3)nnc2SCC(=O)Nc2ccc3c(c2)OCCO3)cc1
-6% | CCCCC(=O)NC(Nc1sc2c(c1C(N)=O)CCCC2)(C(=O)OCC)C(F)(F)F (configuration not stated)
-4% | O=C(O)CCc1ccc(S(=O)(=O)N2CCOCC2)cc1
-16% | O=C(COC(=O)C1(c2ccc(F)cc2)CCCC1)Nc1ncc(C(F)(F)F)cc1Cl
-26% | CC(Nc1cc(N2CCCC2)ccc1[N+](=O)[O-])c1ccccc1 (configuration not stated)
u | C=CCNC(=S)NNc1nc2c(c(=O)[nH]1)C1(CCCCC1)Cc1ccccc1-2
-9% | Cn1c(NC(=O)c2ccccc2C(F)(F)F)cc(=O)n(C)c1=O
u | O=C1C(CCCNC(=S)NCc2ccccc2)NC(=S)N1Cc1ccccc1 (configuration not stated)
-5% | O=C(CN1C(=O)NC2(CCc3ccccc3C2)C1=O)Nc1ccc(F)cc1 (configuration not stated)
2% | CCOC(=O)C(NC(=O)c1ccccc1)(OCC1(CC)COC1)C(F)(F)F (configuration not stated)
-29% | Cc1noc(C)c1C(=O)Nc1sc(C)c(-c2ccccc2)c1C#N
-27% | Cc1ccccc1COc1ccc(/C(O)=C2/C(=O)C(=O)N(CCCn3ccnc3)C2c2ccco2)cc1 (configuration not stated)
22µM* | N#CC1=C(N)SC(N)=C(C#N)C1c1cccc(Oc2ccccc2)c1
28µM* | N#CC1=C(N)C(C#N)(C#N)C(c2cccnc2)C2COCC=C12 (configuration not stated)
u | CC(=O)c1c(C)nc(-c2ccc(Cl)cc2)nc1NC(=O)C(C)C
-26% | Cc1c(C(=O)Oc2ccc(-c3cnc4ccccc4n3)cc2)cccc1[N+](=O)[O-]
-15% | O=C(NC1CCCCC1)C(c1ccccc1)N1CCC2(CC1)OCCO2 (configuration not stated)
-11% | Cc1ccccc1C(=O)Nc1ccc2nc3n(c(=O)c2c1)CCC3
-14% | O=C(Nc1nccs1)c1ccc(Cl)c(S(=O)(=O)N2CCCCC2)c1
-3%&-22% | NC(=O)N1c2ccccc2CC(=O)c2ccccc21
-6% | O=C1CC(N2CCN(c3ccc(Cl)c(Cl)c3)CC2)C(=O)N1 (configuration not stated)
u | CCOC(=O)c1[nH]c2ccc(OC)cc2c1NC(=O)/C=C/c1ccc2c(c1)OCO2
-8% | COc1ccc(OCC(=O)Nc2ccc(N3CCOCC3)cc2)cc1
-17% | FC(F)(F)c1cccc(N2CCc3cn[nH]c32)c1
-20% | Cc1cc([N+](=O)[O-])nn1CC(=O)NNC(=S)Nc1ccc([N+](=O)[O-])cc1
u | CC(C)NC(NC(=O)Cc1ccccc1)C(Cl)(Cl)Cl (configuration not stated)
-7% | CC(=NC1CCCCC1)c1ccccc1O

Four compounds drawn at random from the list so far, as already listed:
HPGD block | mol
-12% | CCn1c(SCC(=O)Nc2ccc(S(=O)(=O)Nc3ccccn3)cc2)nnc1-c1ccncc1
-8% | O=C1CC(=Nc2ccccc2)NN1c1ccccc1
3% | NNC(=O)CN1C(c2cccc(Cl)c2)=Nc2ccc(Br)cc2C1c1ccccc1 (configuration not stated)
-13% | Cc1ccsc1C(=O)NCCC(c1ccccc1)c1ccccc1

Other structures follow:
HPGD block | mol
-14%&1% | C=CC1(C)CC(=O)C2(O)C(C)(O1)C(OC(C)=O)C(O)C1C(C)(C)CCC(O)C12C (configuration not stated)
-8% | O=S(=O)(/N=C(/Nc1ccc(F)cc1F)c1ccccc1)c1ccc(Br)cc1
-12% | COCCNC(=O)CN(c1ccc(C)cc1)S(=O)(=O)c1ccc(SC)cc1
-15% | Cc1nc(-c2ccccc2)sc1C(=O)CSc1ccccc1
u | CCOc1ccccc1-c1cc(C(=O)N/N=C/c2ccc3c(c2)OCO3)c2ccccc2n1
u | Nc1ccccc1C(=O)/C=C/c1ccc2c(c1)OCO2
u | CCOC(=O)c1cnn(-c2nc3c(C)cccc3s2)c1C(F)(F)F
-24% | COC(=O)C1=C(C)NC(C)=C(C(=O)OC)C1C(=O)OCC(=O)N1c2ccccc2CC1C (configuration not stated)
-13% | CC(NC(=O)Nc1cccc(Cl)c1)C(c1cccs1)N1CCCC1 (configuration not stated)
-4% | O=C(c1csnn1)N1CCC2(CC1)CN(c1ccncc1)C2
-12% | CCC1=C(OC(=O)N(CC)CC)N2C(=O)OC(=NCC(=O)OC)[C@]2(Cc2ccccc2)[C@H]2C1=CC[C@H]1C(=O)N(C)C(=O)[C@H]12
-22% | Cc1ccc(/C=C2\SC(=S)N(Cc3ccccc3)C2=O)o1
-6% | COc1ccc(NC(=O)N(CCO)Cc2cc3c(C)cc(C)cc3[nH]c2=O)cc1
25µM* | CSc1nc2ccc(NS(=O)(=O)c3ccc(Cl)s3)cc2s1
-1% | Cc1cc(Cl)ccc1Oc1ncc(CN2CCN(c3ccccc3)CC2)s1
-17% | CN(C(=O)c1ccco1)c1nc(CC(=O)Nc2ccccc2)cs1
-12% | Cn1c(SCc2ccc(C#N)cc2)nnc1-c1cccc(Cl)c1
-7% | Cc1cc(NC(=O)CSc2nnc(Cc3ccccc3)o2)no1
-10% | COc1ccc(-c2csc(NC(=O)CSc3nc(SC)ns3)n2)cc1
-25% | C/C(=C\c1ccccc1)C(=O)n1nnc2ccccc21
-19% | COC(=O)c1c(NC(=O)CSc2nnnn2-c2ccccc2)sc2c1CCCC2
-15% | Cc1ccc2[nH]c(=O)c(C(c3nnnn3C3CCCC3)N3CCCc4ccccc43)cc2c1 (configuration not stated)
-10% | O=C(/C=C/c1ccco1)NCC1(c2ccccc2)CCCC1
-4% | Cc1ccc(CS(=O)(=O)CCC(=O)NCc2ccc3c(c2)OCO3)cc1
-16% | COc1cc(C)nc(N2CCCC(C(=O)NCC(C)C)C2)n1 (configuration not stated)
-14% | CCNS(=O)(=O)c1ccc(C(=O)Nc2ccccc2)cc1
-4% | COc1ccc(C(=O)N2CCN(S(=O)(=O)N3CCOCC3)CC2)cc1OC
-16% | COc1ccc2cc(CN(Cc3ccco3)C(c3nnnn3C3CCCCC3)C(C)C)c(=O)[nH]c2c1 (configuration not stated)
u | CN(Cc1ccccc1)S(=O)(=O)c1ccc2[nH]cc(C(=O)NCC3CCCO3)c(=O)c2c1 (configuration not stated)
-2% | Oc1ccc(Cl)cc1/C=N/c1nccs1
-26% | O=C(Cn1c(O)c(/C=C2\C=Nc3ccccc32)sc1=O)Nc1ccc2c(c1)OCO2
-18% | O=C(OCc1cnc(Cl)s1)c1cccc(Cl)c1Cl
u | Cc1cc(C(=O)O)c(=O)[nH]c1C
-1% | O=C(O)CNC(=O)c1ccccc1NC(=O)c1ccco1
-20% | CCOc1ccc(NC(=O)c2ccc3snnc3c2)cc1
-21% | CC(=O)Nc1ccc(S(=O)(=O)Nc2nc3ccccc3nc2N2CCCC2)cc1
-3% | COc1cc(OC)cc(C(=O)NCC(=O)OC2CCOC2=O)c1 (configuration not stated)
1% | CNC(=O)NCC12CC3CC(CC(C3)C1)C2
-17% | COc1ccc(Cc2nnc(SC)[nH]c2=O)cc1OC
2% | CCNc1nc(NCC)nc(ON=C(C)C)n1
u | CCOc1ccc(/C=N/Nc2cc(=O)n(C)c(=O)n2C)cc1
-20% | CC1Cc2ccccc2N1C(=O)Cn1nnc(-c2ccccc2NC(=O)C2CCC2)n1 (configuration not stated)
-8% | COC(=O)c1cc(=O)c2ccc(OC)cc2o1
-21% | Cn1nc(-c2ccc(Cl)cc2)c2cc(C(=O)N3CCCC3)sc21
u | Cc1ccc2nc(-c3ccc(NC(=O)CSc4ccccc4)cc3)[nH]c2c1
-21% | Cc1ccc(N=Cc2nc(-c3ccco3)oc2O)cc1
-24% | CCOC(=O)Cn1c(=NC(=O)CSC(C)=O)sc2cc(F)ccc21
-22% | O=C(CSc1nnc(-c2cccnc2)n1Cc1ccco1)c1ccc2ccccc2c1
u | COc1ccc(-c2nnc(-c3ccc(N)cc3)o2)cc1
-8% | O=C(C1COc2ccccc2O1)N1CCn2c(nc3ccccc32)C1 (configuration not stated)
-9% | COc1ccc(O[C@H]2C=C[C@@H](c3ccccc3)O[C@@H]2COC(=O)CC/C(C)=N/OC[C@@H](O)[C@H]2O[C@@H]3OC(C)(C)O[C@@H]3[C@H]2O)cc1

Screening results from PubChem.
